Screening results as filed in PubChem.
STK33 inh – inhibitors of purified STK33 kinase, primary screen, biochemical, ADP-Glo luminescence, homogeneous, cell-free. Serine/threonine-protein kinase 33 (Homo sapiens), Q9BYT3. MBP phosphorylation. inhibition, % at 10 µM. 0.073% of 320,000 active;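 active = inhibition at or above 25%, using the most active replicate where run in duplicate; inactive = inhibition below 25%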
Target sequence (Q9BYT3 whole entry, looked up): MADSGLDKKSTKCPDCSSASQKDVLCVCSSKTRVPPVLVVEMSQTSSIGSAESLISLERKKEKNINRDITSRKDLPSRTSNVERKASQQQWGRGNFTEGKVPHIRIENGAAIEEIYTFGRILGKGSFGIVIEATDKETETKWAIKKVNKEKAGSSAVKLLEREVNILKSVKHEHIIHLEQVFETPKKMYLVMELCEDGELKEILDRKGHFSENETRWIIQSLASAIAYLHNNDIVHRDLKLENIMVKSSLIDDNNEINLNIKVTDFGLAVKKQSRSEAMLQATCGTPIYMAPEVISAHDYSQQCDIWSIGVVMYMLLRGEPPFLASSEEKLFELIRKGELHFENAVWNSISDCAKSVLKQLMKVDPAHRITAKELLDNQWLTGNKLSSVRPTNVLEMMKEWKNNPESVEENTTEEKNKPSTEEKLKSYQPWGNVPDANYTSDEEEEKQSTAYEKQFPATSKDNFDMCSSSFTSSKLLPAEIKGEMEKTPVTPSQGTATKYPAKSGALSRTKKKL
Active calls of the source: *. A portion of the library, and most or all hits are left out here.

Sample of the layout (17 entries):
SMILES	STK33 inh
CCOc1ccc(Nc2nc(Cc3nnc(SCC(=O)NCc4ccco4)n3CC)cs2)cc1	-0.7
Cc1ccc(S(=O)(=O)/N=C(/NC(=S)Nc2cccc(C)c2)c2ccccc2)cc1	-0.9
O=C(CCCCC(=O)NCCCc1ccccc1)NCCCc1ccccc1	2.2
CC(NC(=O)OC(C)(C)C)C(=O)Oc1ccc2ccc(=O)oc2c1 (configuration not stated)	-0.6
COC(=O)c1sc(=S)n(-c2cc(F)ccc2F)c1N	-1.3
Cc1nnsc1C(=O)Nc1ccc(Cl)cc1	-2.9
Cc1cccc(-c2onc3ccc(C4(C)OCCO4)cc23)c1	2.0
Cc1ccc(S(=O)(=O)Nc2ccc3c(c2)OCCO3)c(C)c1NS(C)(=O)=O	-3.2
CSc1ccc(S(=O)(=O)N2CCC(C(=O)Nc3ccc(NC(C)=O)cc3)CC2)cc1	-1.8
Cc1nc(NCc2ccccc2)[nH]c(=O)c1CCC(C)C	0.2
Fc1c(F)c(F)c(NC2=NCCCCC2)c(F)c1F	-2.4
CC1(C)CC(=O)c2cnc(NCC3CCCO3)nc2C1 (configuration not stated)	-0.6
N#C/C(=C/c1ccncc1)c1nc2ccccc2s1	1.1
O=C(NC1CCCCC1)C(c1cccnc1)N(C(=O)c1csnn1)c1ccc(F)cc1 (configuration not stated)	0.6
Cc1cccc(C)c1NC(=O)CNC(=O)CNC(=O)c1ccc2c(c1)OCO2	-1.4
O=c1cc(CSc2n[nH]c(-c3ccncc3)n2)nc2sccn12	-1.3
N#CC1(c2ccccc2)CCC(=O)N1c1ccccc1 (configuration not stated)	-0.9

The whole of this part, from the start:
SMILES	STK33 inh
CCOc1ccc(Nc2nc(Cc3nnc(SCC(=O)NCc4ccco4)n3CC)cs2)cc1	-0.7
Cc1ccc(S(=O)(=O)/N=C(/NC(=S)Nc2cccc(C)c2)c2ccccc2)cc1	-0.9
O=C(CCCCC(=O)NCCCc1ccccc1)NCCCc1ccccc1	2.2
CC(NC(=O)OC(C)(C)C)C(=O)Oc1ccc2ccc(=O)oc2c1 (configuration not stated)	-0.6
COC(=O)c1sc(=S)n(-c2cc(F)ccc2F)c1N	-1.3
Cc1nnsc1C(=O)Nc1ccc(Cl)cc1	-2.9
Cc1cccc(-c2onc3ccc(C4(C)OCCO4)cc23)c1	2.0
Cc1ccc(S(=O)(=O)Nc2ccc3c(c2)OCCO3)c(C)c1NS(C)(=O)=O	-3.2
CSc1ccc(S(=O)(=O)N2CCC(C(=O)Nc3ccc(NC(C)=O)cc3)CC2)cc1	-1.8
Cc1nc(NCc2ccccc2)[nH]c(=O)c1CCC(C)C	0.2
Fc1c(F)c(F)c(NC2=NCCCCC2)c(F)c1F	-2.4
CC1(C)CC(=O)c2cnc(NCC3CCCO3)nc2C1 (configuration not stated)	-0.6
N#C/C(=C/c1ccncc1)c1nc2ccccc2s1	1.1
O=C(NC1CCCCC1)C(c1cccnc1)N(C(=O)c1csnn1)c1ccc(F)cc1 (configuration not stated)	0.6
Cc1cccc(C)c1NC(=O)CNC(=O)CNC(=O)c1ccc2c(c1)OCO2	-1.4
O=c1cc(CSc2n[nH]c(-c3ccncc3)n2)nc2sccn12	-1.3
N#CC1(c2ccccc2)CCC(=O)N1c1ccccc1 (configuration not stated)	-0.9
CC1CCCC(C)N1C(=O)Cn1nnc(-c2ccccc2)n1 (configuration not stated)	-0.4
COc1ccc([C@@H]2[C@@H]3C(=O)N(C(C)(C)C)C(=O)[C@@H]3[C@]3(Cc4ccc(Cl)cc4)C(=O)N(c4cccc(F)c4)C(=O)N23)cc1	-1.9
CC1CCCC(C)N1C(=O)COc1ccccc1F (configuration not stated)	0.8
C/C(=N/NC(=O)c1ccc(C)nc1)c1ccc2c(c1)CCCC2	0.4
CCC(=O)NC(O)C(=O)c1ccc(C)cc1 (configuration not stated)	-1.5
Cc1ccc(C(=O)NC(C)c2ccncc2)o1 (configuration not stated)	-1.2
O=C(CN1CCN(S(=O)(=O)c2ccc(Cl)cc2)CC1)NC(=O)NC1CCCCC1	-0.7
CCn1c(COc2ccc(C)cc2)nnc1SCc1nc2ccccc2[nH]1	-1.0
COc1ccc(C(=O)N2CCC(C(=O)Nc3ccc(OC)c(OC)c3)CC2)cc1	0.6
c1ccc(-c2nnc(CSc3nnc(-c4ccncc4)n3Cc3ccco3)o2)cc1	4.4
Cc1ccc(NC(=O)CCNS(=O)(=O)c2ccc(Br)cc2)cc1S(=O)(=O)N1CCOCC1	2.1
COc1ccc(C2NC(=O)C(C)S2)cc1 (configuration not stated)	-0.1
C#CCSc1ncc(-c2ccccc2)cn1	0.6
O=C(c1cc(-c2ccccc2)on1)N1CCCCCC1	-0.3
CCC(=O)c1ccc(N2CCN(S(=O)(=O)c3ccccc3)CC2)c(F)c1	-1.0
Cc1cccc(Oc2nc3ccccn3c(=O)c2/C=C(\C#N)C(=O)NC2CCS(=O)(=O)C2)c1C (configuration not stated)	-0.6
CC(=O)OC(C)(C)C#CCN1CCCC1	-4.0
COc1ccc(OCC(O)CNCCOc2ccccc2OC)c(C(C)(C)C)c1 (configuration not stated)	-5.0
CS(=O)(=O)N(CC(=O)N1CCCCC1)C1CCCCC1	-2.5
CC[C@H](C)[C@@H](C(=O)NCCCCCCCCCCC(=O)N1CCNCC1)n1cc(CCCCCN)nn1	-3.7
Cc1cc(=O)oc2cc(OCC(=O)OC(C)C(=O)NC3CCCC3)ccc12 (configuration not stated)	-1.5
NC(=O)C1CCN(C(=O)CSc2nc(O)cc(=O)[nH]2)CC1	-2.2
COc1ccc(CCNC(=O)CSc2ccccc2)cc1OC	-1.5
CC(=O)Nc1ccc(S(=O)(=O)NCc2ccc(C(=O)NCCCN3CCC(C)CC3)cc2)cc1	0.2
COc1cc(NC(=O)CSc2nncn2C)cc(OC)c1OC	-2.0
CCCCNC(=O)C1C2C=CC3(CN(Cc4ccc(C)cc4)C(=O)C13)O2 (configuration not stated)	-0.4
O=C(NCCN1C(=O)S/C(=C\c2ccc(OC(F)F)cc2)C1=O)c1cnccn1	-0.3
O=C(Nc1cc(S(=O)(=O)N2CCOCC2)ccc1N1CCOCC1)c1cn2ccccc2n1	-1.1
Cc1cc(C)n2ncc(-c3cccc(Br)c3)c2n1	-1.3
COc1ccc(Cl)cc1C(=O)NC(=S)Nc1cc(-c2nc3ccccc3[nH]2)ccc1C	-1.5
Cc1ccc2oc(C(=O)N3CCC(N4CCSCC4)CC3)c(C)c2c1	-2.7
CCCCNC(=O)CCn1nc(-c2ccccc2)ccc1=O	-0.8
Cc1ccccc1N1CCN(C2CCCN(C(=O)c3cc(CC(C)C)nn3C)C2)CC1 (configuration not stated)	-0.3

Continuation.
SMILES	STK33 inh
O=C1c2ccccc2C(=O)N1CC(O)COc1ccccc1Cl (configuration not stated)	-1.2
Cc1cc(NCCO)nc(-n2nc(C)cc2C)n1	-0.4
FC(F)(F)c1cccc(NC(=S)NCc2ccc(Cl)cc2)c1	-0.6
Cc1ccc(C(=O)OCC(=O)N(C)C2CCS(=O)(=O)C2)cc1S(=O)(=O)N1CCCCC1 (configuration not stated)	1.4
CCOC(=O)c1ccccc1NC(=O)C1CSC2(C)CCC(=O)N12 (configuration not stated)	-1.3
COC(=O)CCCNC(=O)c1ccc(S(=O)(=O)NCc2ccco2)cc1	-3.0
C=CCOC(=O)C1=C(C)Nc2nc3ccccc3n2C1c1ccncc1 (configuration not stated)	-0.8
NC(=O)CCCc1nc(-c2ccccc2Cl)no1	0.0
COc1ccc2[nH]c(CN3CCC(n4nccc4NC(=O)C4CC4)CC3)c(C)c2c1	-0.5
O=c1c2ccccc2sn1-c1ccc(S(=O)(=O)N2CCCC2)cc1	-2.0
COc1ccc(C(=O)OCC(=O)c2ccc(C)c(S(=O)(=O)N3CCOCC3)c2)cc1OC	-0.7
COc1ccc(-c2ccnc3c(C#N)cnn23)cc1	-1.0
COc1ccc(NC(=O)CSc2nc3c(cc2C#N)CN(C)CC3)cc1	0.2
COc1ccc(/C=C2\SC(=S)N(CCC(=O)NCCCN3CCOCC3)C2=O)cc1	-0.4
O=C(CCc1n[nH]c(=O)[nH]c1=O)N1CCOCC1	-0.2
Cc1ccc(OCCNC(=O)CNC(=O)c2ccc(C)cc2)cc1	-0.5
CCOC(=O)Cn1nnc(-c2ccc(SC)cc2)n1	-0.6
Cc1nn(C)cc1[C@@H]1C[C@H]2CN(Cc3cccc(Cl)c3)C(=O)[C@]23CCCN13	0.1
C=CCN1C(=O)c2ccc(C(=O)OCC(=O)N(C)C3CCCCC3)cc2C1=O	-0.8
CCN1C(=O)S/C(=C/c2c(OCc3ccc(C(=O)O)cc3)ccc3ccccc23)C1=O	1.4
O=[N+]([O-])c1cc(/C=N/Nc2nc(N3CCOCC3)nc(N3CCOCC3)n2)ccc1Cl	-0.7
S=C(NCc1ccccc1)Nc1cccc2cnccc12	0.5
Cc1ccccc1OCC(O)CN (configuration not stated)	-0.7
CC(=O)C(C(C)=O)C(c1ccccc1)c1nc2ccccc2[nH]c1=O (configuration not stated)	-1.0
O=S(=O)(N=S(N1CCCCC1)N1CCCCC1)c1ccccc1	-0.8
O=C(COc1ccc2c(-c3ccccc3)cc(=O)oc2c1)NCC(O)c1ccccc1 (configuration not stated)	15
O=C(Nc1cccc(S(=O)(=O)N2CCCC2)c1)c1cccnc1	-1.7
Cc1ccc(NC(=O)CCCCCN2C(=O)c3ccccc3C2=O)nc1	-0.4
COCCn1c(SCC(=O)Nc2ccc(NC(C)=O)cc2)nc2c([nH]c3ccccc32)c1=O	-1.8
Cc1ccc(S(=O)(=O)N(C)c2ccc(OCC(=O)NC3=NCCS3)cc2)cc1	-1.4
COc1ccc(NC(=O)CN(Cc2ccccc2)S(C)(=O)=O)c(OC)c1	-0.1
CCOc1ccc(S(=O)(=O)N2CCN(C(=S)NC3CC3)CC2)cc1	-0.7
O=C(Cn1c(=O)oc2cc(S(=O)(=O)N3CCCCC3)ccc21)N1CCc2ccccc2C1	-0.2
CCOC(=O)c1c(C)nn(Cc2cccc(Cl)c2)c1N	-0.7
CC(O)/C=C/C1OC(=O)CC1Nc1ccc(C=O)cc1 (configuration not stated)	-0.2
O=C(Nc1ccc(Oc2nnc(-c3ccccc3)c3ccccc23)cc1)c1ccccc1	-1.1
CC(C)C(NC(=O)c1ccc(C(C)(C)C)cc1)C(=O)Nc1cccc(S(N)(=O)=O)c1 (configuration not stated)	-0.3
CN(C)CCCOC(=O)COc1ccc(C(C)(C)C)cc1	-1.2
CCCS(=O)(=O)N1CCCC(C(=O)NC2CCCC(C)C2C)C1 (configuration not stated)	-1.5
Cc1ccc(Cl)cc1NC(=O)CCn1cccc1	-0.4
O=C(N/N=C/C(Cl)=C/c1ccc([N+](=O)[O-])cc1)C(=O)Nc1ccc(C(=O)O)cc1	-0.6
CC(NC(=O)/C(C#N)=C/c1cccs1)c1ccccc1 (configuration not stated)	3.0
N#Cc1ccccc1COC(=O)c1ccc(Br)o1	0.6
c1ccc(N/N=C2\CCCc3ccccc32)nc1	0.6
COc1ccc(NC(=O)COc2ccc(Br)cc2)c(OC)c1	-0.4
CN1CCN(c2ccc(S(=O)(=O)N3CCCCC3)cc2NC(=O)Cc2ccccc2F)CC1	1.2
COc1ccc(NC(=O)CCNC(=O)c2ccco2)cc1Cl	-0.3
Cc1ccc(NC(=O)CSC2=C(C#N)C(c3ccc4c(c3)OCO4)C3=C(CCCC3=O)N2)c(C)c1 (configuration not stated)	-0.9
CCOc1ccccc1NC(=O)c1ccc2c(c1)C(=O)N(C(C)(C)C)C2=O	-1.3
C(=C\c1ccccc1)/C=N/Nc1nc(N2CCCCC2)nc(N2CCCCC2)n1	-1.1

Continuation:
SMILES	STK33 inh
O=C(CCC(=O)NNC(=O)COc1ccccc1)NCc1ccccc1	0.4
O=C(N/N=C/c1ccncc1)c1cnccn1	-2.9
CCN1CCN(C(c2cccs2)C(C)NC(=O)C(=O)N2CCCCC2)CC1 (configuration not stated)	-0.8
CC(C)c1ccc(C2CC(=O)c3cnc(NC(=O)c4ccco4)nc3C2)cc1 (configuration not stated)	-0.2
O=C(NCc1cccc(C(F)(F)F)c1)C1CCN(c2ncccn2)CC1	1.2
O=C(O)CCC(=O)N1CCN(Cc2ccc3c(c2)OCO3)CC1	-0.3
CC(C)(C)C(=O)NC(=S)NNC(=O)c1ccc(Cl)cc1Cl	-0.3
CCC(=O)Nc1cccc(-c2nnc(SCC(=O)c3ccccc3)n2C)c1	-0.4
COc1ccc(C(=O)Nn2c(C3CCC3)nc3ccccc3c2=O)c(OC)c1	-1.6
Cc1ccc(S(=O)(=O)N(C)c2ccccc2C(=O)NC2CCCC2)cc1	0.5
COc1ccc(C(=O)NC2CCCc3c2cnn3-c2cccc(C)c2C)o1 (configuration not stated)	0.3
COC(=O)c1ccc(CSc2nc3ccccc3c(=O)n2C)o1	-0.3
CCOCCCNC(=O)CN(Cc1ccc(Cl)cc1)S(C)(=O)=O	-0.7
Cc1ccc(C)c(N=Cc2cc3c(cc2[N+](=O)[O-])OCO3)c1	-0.3
CC(C)[C@H](NC(=O)c1ccccc1)C(=O)OCC(=O)c1ccc(S(=O)(=O)N2CCCCC2)cc1	-1.3
O=C(CCN1C(=O)S/C(=C/c2ccc(Cl)cc2)C1=O)N1CCOCC1	-0.4
CC1CN(c2ccc(C(F)(F)F)cc2[N+](=O)[O-])CCN1S(C)(=O)=O (configuration not stated)	-1.7
Cc1cc(SC2CCOC2=O)nc2ccccc12 (configuration not stated)	0.3
CC(=O)Nc1ccc(S(=O)(=O)N(c2cccnc2)S(=O)(=O)c2ccc(NC(C)=O)cc2)cc1	-0.4
CC(C)C(=O)N1CCN(CCN=CC2=C(O)CC(c3ccco3)CC2=O)CC1 (configuration not stated)	0.6
COc1cccc(CNc2nc3nc(C)c(Cl)c(C)n3n2)c1	-0.5
COC(=O)CSc1nnc(-c2ccc3c(c2)OCO3)n1C	-3.5
CCC(=O)Oc1ccc(-c2nc(-c3cccnc3)no2)cc1	-3.3
CCCCCCn1c(=O)[nH]c2c(c1=O)CCC2	-4.3
CCOc1ccc(C2OC34CCCCC3C(C#N)(C#N)C2(C#N)C(=N)O4)cc1OC (configuration not stated)	-0.2
NC(=O)c1nsc(C(=O)N(Cc2ccc(F)cc2)C(C(=O)NCC2CCCO2)c2ccc(F)cc2)c1N (configuration not stated)	-1.7
O=C1NC(=S)N/C1=C/c1ccc2ccccc2c1	-2.9
